Bioassay records (PubChem)
TRPML1 blocker = qHTS for Inhibitors of the Human Mucolipin Transient Receptor Potential 1 (TRPML1). activity change, negative = inhibition, % (concentration not given with the values). TRPML1-inducible cells, Ca2+ dye fluorescence, FDSS; active compounds read low; inhibition of EC80 agonist-evoked calcium signal. 390,000 compounds, 0.02% hits; in the data active means activity change below about -50%; inconclusive means about -30% to -50%; inactive means above about -30%;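 note: stimulus is agonist 54-4 at its EC80 concentration; % is set by controls: 0 for no effect and ±100 for the full control effect; the text of the record puts the active cut at -80%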
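Calcium fluorescence in TRPML1-DL cells induced overnight with Tet: a 110 s read after compound pin addition, then a 110 s antagonist read after challenge with 54-4 at 4 uM final (EC80).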
TRPML1 agonist = qHTS for Agonists of the Human Mucolipin Transient Receptor Potential 1 (TRPML1); activation, % (test concentration not listed); TRPML1-expressing cells, Ca2+ dye fluorescence, FDSS; host cell line not named in the record; reference of the full effect not given here; Mucolipin-1 (Homo sapiens), Q9GZU1; 410,000 compounds, 0.12% hits; in the data active = activation above about 50%; inconclusive = about 30% to 50%; inactive = below about 30%; note: 0% is about no effect; the text of the record puts the active cut at 80%
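Tet-induced TRPML1-DL cells, 1,500 per well, cultured overnight, were loaded with a no-wash Ca2+ dye for 45–90 min. Calcium fluorescence was recorded on the FDSS for 110 s after compound addition, before the EC80 agonist (4 uM 54-4) was added.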
D2 agonist = Beta-Arrestin HTS for Positive Allosteric Modulators of the Human D2 Dopamine Receptor: Agonists. AID 624465, 2012. DiscoveRx PathHunter D2 beta-arrestin, luminescence, 90 min; 100% = 57 uM dopamine signal. 360,000 compounds, 0.084% hits. activation, % (no concentration beside the values); in the data active = activation above about 40%; inconclusive = about 15% to 40%; inactive = below about 15%; note: compound concentration not given in the record; the text of the record calls up to 30% inactive
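Agonist mode: compounds alone added to overnight-plated D2 PathHunter cells for 90 min at 37 C, with 57 uM final dopamine (EC100) defining full response. Beta-arrestin recruitment detected by chemiluminescent reagent, read after 1 h at ambient temperature.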
D2 PAM = Beta-Arrestin HTS for Positive Allosteric Modulators of the Human D2 Dopamine Receptor: Potentiators; DiscoveRx D2 beta-arrestin cells, luminescence, 90 min; 100% = 57 uM dopamine signal; 360,000 compounds, 0.23% hits; D(2) dopamine receptor (Homo sapiens), P14416; potentiation, % (no concentration beside the values); active = potentiation of 50% or more; inconclusive = 30% to 50%; inactive = 30% or less;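 note: compound concentration not given in the record; tested on top of an EC20 dose of dopamine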
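D2 cells co-treated with compound plus 50 nM dopamine (EC20) for 90 min at 37 deg C to detect potentiation. Beta-arrestin recruitment was read as enzyme-fragment luminescence after 1 h at ambient temperature. Full response was set by 57 uM dopamine.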
Six1-Eya2 blk = qHTS Assay for Inhibitors of the Six1/Eya2 Interaction | Homeobox protein SIX1 (Homo sapiens) + Protein phosphatase EYA2 (Homo sapiens), … | AID 651725, 2012 | 360,000 compounds, 0.56% hits | AlphaScreen GST-Six1/His-Eya2 binding, biochemical; active compounds read low; control for the full effect not named in the record | activity change, % (test concentration not listed); in the data active = activity change below about -65%; inconclusive = about -30% to -65%; inactive = above about -30%; note: % is set by controls: 0 for no effect and ±100 for the full control effect
Target sequence (O00167 whole entry, looked up): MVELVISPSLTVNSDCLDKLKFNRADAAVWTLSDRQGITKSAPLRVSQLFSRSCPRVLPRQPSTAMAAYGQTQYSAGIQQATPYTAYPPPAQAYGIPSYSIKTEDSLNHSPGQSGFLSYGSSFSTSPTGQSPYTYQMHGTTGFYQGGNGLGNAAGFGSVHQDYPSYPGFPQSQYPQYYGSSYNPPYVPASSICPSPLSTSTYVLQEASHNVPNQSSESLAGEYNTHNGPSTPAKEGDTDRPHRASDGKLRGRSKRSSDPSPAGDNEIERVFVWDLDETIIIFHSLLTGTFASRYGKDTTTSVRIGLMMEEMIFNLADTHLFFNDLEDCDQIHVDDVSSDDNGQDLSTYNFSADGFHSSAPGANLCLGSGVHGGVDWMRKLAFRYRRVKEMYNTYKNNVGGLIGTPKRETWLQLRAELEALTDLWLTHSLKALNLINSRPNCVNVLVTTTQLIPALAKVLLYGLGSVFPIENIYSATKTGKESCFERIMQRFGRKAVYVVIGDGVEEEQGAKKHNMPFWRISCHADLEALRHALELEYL
Target sequence (Q15475 whole entry, looked up): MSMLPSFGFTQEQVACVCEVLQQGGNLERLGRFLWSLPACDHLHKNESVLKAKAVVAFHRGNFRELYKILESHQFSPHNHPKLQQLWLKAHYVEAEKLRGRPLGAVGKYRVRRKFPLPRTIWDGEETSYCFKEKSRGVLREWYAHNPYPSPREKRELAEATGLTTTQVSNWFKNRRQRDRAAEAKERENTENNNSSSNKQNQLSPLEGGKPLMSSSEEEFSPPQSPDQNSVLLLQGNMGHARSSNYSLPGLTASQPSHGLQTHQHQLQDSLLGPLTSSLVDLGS
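GST-Six1 + His-Eya2 (5X stock: 250/500 nM); Tris pH 8.0, 300 mM NaCl, 0.05% BSA, 0.02% Tween 20; GSH donor/Ni acceptor beads; 1 h 37 °C dark; AlphaScreen readout.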
PINK1 expr mod = A Quantitative High throughput Screen to Identify Chemical Modulators of PINK1 Expression; PINK1 immunofluorescence, high-content cytometry, 24 h; Potency, µM (series often up to 76.6 µM), without a hit: top-dose activation (PINK1 increase), hits mostly activators; 410,000 compounds, 0.2% hits; AID 624263, 2012; active = well fitted activation curve with a large enough effect; inconclusive = small, poorly fitted or top-dose-only effect; inactive = flat fitted curve, though single readings scatter; cell line not stated here;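 note: potency is the fitted concentration of half-maximal effect; % of control where 0% means no effect; nearly all actives have a fitted effect of over 65% in size; a mitochondrial uncoupler was the plate control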
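Measures PINK1 amount and localization on or inside mitochondria by immunofluorescence. Stable cells get compounds at 5 concentrations for 24 hours before fixation and staining; CCCP controls included.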
The depositor's hits bear a star; nt = no result given; [ ] = another dose, or the depositor's remark.

Start of the listing, in advance (two entries):
Fields: TRPML1 blocker, TRPML1 agonist, D2 agonist, D2 PAM, Six1-Eya2 blk, PINK1 expr mod
> CC(=O)N(CCC(Cc1ccccc1)c1ccco1)Cc1ccco1 (configuration not stated)
  15, 0.6, 0.8, -6, -1, 0.2%
> Cc1cc(=O)n2nc(N3CCCC(C(=O)NCCC4=CCCCC4)C3)sc2n1 (configuration not stated)
  10, 0.2, 1.2, -11, -1, -1.1%

The list itself, previewed entries included:
Fields: TRPML1 blocker, TRPML1 agonist, D2 agonist, D2 PAM, Six1-Eya2 blk, PINK1 expr mod
> CC(=O)N(CCC(Cc1ccccc1)c1ccco1)Cc1ccco1 (configuration not stated)
  15, 0.6, 0.8, -6, -1, 0.2%
> Cc1cc(=O)n2nc(N3CCCC(C(=O)NCCC4=CCCCC4)C3)sc2n1 (configuration not stated)
  10, 0.2, 1.2, -11, -1, -1.1%
> CC(=N\Nc1ccccc1)/C(=N/O)C(=O)Nc1ccccc1
  -3, -0.4, 0.1, -6, 0, 2.6%
> C/C(=N\NC(=O)c1ccc(Cn2cc(Br)cn2)o1)c1ccc(NC(=O)c2ccoc2C)cc1
  23, -0.6, 0.1, 1, -13, -1.4%
> O=C(Cc1ccc(-c2ccccc2)cc1)NCCS(=O)(=O)N1CCN(c2ccccc2)CC1
  11, 1.8, nt, nt, nt, -0.4%
> CCOc1ccc(CN(Cc2ccco2)C(c2cccs2)c2nnnn2C(C)(C)C)cc1 (configuration not stated)
  3, 7.1, -4.4, -18, -8, 0.5%
> CC(=O)Nc1cccc(NC(=O)NC2CC(=O)N(c3ccc4c(c3)OCCO4)C2)c1 (configuration not stated)
  9, -0.3, -1.2, -11, -3, 1.7%
> CN1CCN(c2ccc(CNC(=O)c3cc4ccccc4o3)cc2)CC1
  -3, -0.8, -2.7, -23, -4, 0.1%
> Cc1ccc(N2C(=O)N3[C@H](c4ccc(F)cc4)[C@@H]4C(=O)N(C5CCCCC5)C(=O)[C@@H]4[C@]3(C)C2=O)cc1
  15, -0.3, -0.6, -16, -5, 0.1%
> COc1ccc(C(=O)N2CCNC(=O)C2)cc1S(=O)(=O)Nc1ccc(Br)cc1
  3, 0.5, -4.6, -3, -1, 0.3%
> COc1cccc(S(=O)(=O)Nc2cccc(C(=O)N3CCOCC3)c2)c1
  -4, -0.5, -3.6, -17, 1, -0.9%
> COCCNS(=O)(=O)c1ccc2c(c1)Cc1cc(S(=O)(=O)NCCOC)ccc1-2
  12, -0.5, 5.1, -9, 10, -0.2%
> CC(C)C(=O)Nc1nnc(CCc2nnc(NC(=O)C(C)C)s2)s1
  -18, -0.1, -1.6, -3, 8, 1.4%
> CCOc1ccc2nc(N(CCN(CC)CC)C(=O)c3cccc([N+](=O)[O-])c3)sc2c1
  -7, -0.3, -3.0, -7, 15, 0.8%
> Cc1ccc(NC(=O)CSc2nc(=O)n(CCCN3CCOCC3)c3c2CCCC3)cc1
  -9, 1.2, -1.9, -19, -2, -1.4%
> COc1cc(CNn2cn[nH]c2=S)ccc1OCC(=O)NC(C)(C)C
  8, -0.6, -3.1, -4, -7, 0.0%
> CN(C)S(=O)(=O)Oc1ccc(Cl)cc1C(=O)Nc1ccc(F)cc1F
  7, -0.2, 2.9, 6, 7, 2.4%
> CCCCCN(C(=O)CCC(=O)OCc1cccc(Cl)c1)c1c(N)n(CCCC)c(=O)[nH]c1=O
  -6, -0.6, -2.1, -9, 3, 0.1%
> O=C(CSc1nc2ccccc2[nH]1)NC1CCS(=O)(=O)C1 (configuration not stated)
  28, -0.4, -1.2, -13, -25, nt
> O=C(CCS(=O)(=O)Cc1ccccc1)N1CCc2ccccc2C1
  -9, 0.1, -2.2, -6, 4, 1.2%[38.3 µM]

Fields: TRPML1 blocker, TRPML1 agonist, D2 agonist, D2 PAM, Six1-Eya2 blk, PINK1 expr mod
> COC(=O)c1ccc(Cl)cc1NC(=O)N1CC(C)Oc2ccccc21 (configuration not stated)
  12, 0.5, nt, nt, nt, 2.7%
> CCCCn1c(SCC(=O)Nc2nc(C)cs2)nnc1-c1cccnc1
  -3, 0.4, 0.8, 5, 3, 4.7%[38.3 µM]
> OCCN1CCN(CC/C=C2/c3ccccc3Sc3ccc(Cl)cc32)CC1
  4, 1.4, -2.1, -24, -3, -1.1%
> C#CCN(C(=O)C1CCC(=O)N(CCc2cccc(F)c2)C1)C1CCCCC1 (configuration not stated)
  -2, -0.8, -2.9, -14, 21, -0.5%
> C[C@H]1CN([C@@H](C)CO)C(=O)CCCn2cc(nn2)CO[C@@H]1CN(C)C(=O)Nc1ccc2c(c1)OCO2
  6, 0.3, -3.8, -3, -20, 1.0%
> CC1(c2ccccc2)NC(=O)N(CC(=O)N2CCN(S(=O)(=O)c3ccccc3[N+](=O)[O-])CC2)C1=O (configuration not stated)
  21, -0.4, -6.8, -10, -7, -1.0%
> COc1ccc(CNC(=O)COC(=O)C(CCSC)NC(=O)c2ccco2)cc1OC (configuration not stated)
  -15, 1.3, -1.3, 0, 2, 0.0%
> O=C(Nc1ccnn1C1CCN(CC2CC=CCC2)CC1)c1ccccc1Cl (configuration not stated)
  11, 0.0, 4.7, -24, -1, 0.6%
> C=CCn1c(Cc2ccc(OC)cc2)nnc1SCc1nc2ccccc2c(=O)[nH]1
  13, 1.0, -2.5, 1, -1, -3.7%[38.3 µM]
> Cc1ccc(OC(=O)c2cccc(S(=O)(=O)N(C)C)c2)c(-n2nc3ccccc3n2)c1
  42, 2.7, -3.2, 5, 15, 0.3%
> COc1ccc2c(c1)CCc1c(C(=O)Nc3c(C)nn(Cc4ccc(Cl)c(Cl)c4)c3C)noc1-2
  1, 0.5, nt, nt, nt, 0.5%
> Brc1ccc(OCc2nnc3n2CCC3)cc1
  23, 1.1, -3.1, -9, 3, -0.3%
> CN(c1cccc(F)c1)c1cc2c(c3c1ccn3C)C1CCC2C1 (configuration not stated)
  -11, 0.8, -3.8, -9, -29, 3.7%
> COC(=O)c1ccc(/C=N/Nc2nc(-c3ccccc3)cs2)cc1
  6, -0.3, -4.9, -10, 5, -1.0%
> COc1ccc(-c2noc(CCC(=O)N3CCN(c4cc(C)ccc4C)CC3)n2)cc1
  7, 0.2, -2.8, -6, -12, 4.0%
> COc1ccc(CCNC(=O)CN2C(=O)C(=O)N(C3CCCC3)C2=O)cc1OC
  -12, -0.3, -5.5, -2, -1, -0.8%
> Cc1cc(C)cc(NC(=O)CN(C)S(=O)(=O)c2cnc[nH]2)c1
  8, 0.6, -2.1, 2, 7, 0.4%
> CCOc1cc(/C=N/N=C(\N)c2nonc2N)cc(Br)c1OCc1cccc2ccccc12
  25, 1.1, 4.8, -2, -2, -1.8%
> CCOC(=O)COc1ccc2c(=O)cc(-c3ccccc3)oc2c1
  9, 1.5, -2.7, -8, 3, 0.2%
> CCSc1nc(-c2ccccc2F)nc2c1Cc1c(CO)cnc(C)c1O2
  -25, 0.4, nt, nt, nt, -1.8%

Fields: TRPML1 blocker, TRPML1 agonist, D2 agonist, D2 PAM, Six1-Eya2 blk, PINK1 expr mod
> CCOC(=O)N1CCN(C(=O)Cc2cccs2)CC1
  8, 0.1, -3.8, -14, 6, 2.7%
> CC(=O)c1ccc(Nc2cc(C)nc3nc(Cc4ccccc4)nn23)cc1
  3, -1.3, nt, nt, nt, 1.0%
> COc1ccc(Nc2c(-c3ccc(N4CCOCC4)cc3)nc3ncccn23)cc1OC
  -13, 0.3, nt, nt, nt, -0.8%
> COc1ccccc1N1CCN(C(=O)c2ccc(CN3CCOCC3)cc2)CC1
  2, 1.0, -2.1, -4, 5, 0.8%
> Cc1cccnc1NC(=O)C(c1ccccc1)c1ccccc1
  -4, 0.2, -3.3, -4, 36, -1.5%
> Cc1ccc(NC(=O)NCCN2CCN(c3ccccc3)CC2)cc1Cl
  21, 0.8, 6.6, -27, -5, 7.8%
> COc1ccc(S(=O)(=O)N2CCN(c3ccccc3)CC2)cc1-c1noc(C)n1
  -20, 3.3, nt, nt, nt, 0.0%
> CC(C)(C)NC(=O)CN(Cc1ccc2c(c1)OCO2)C(=O)CNS(=O)(=O)c1ccccc1
  8, -0.8, -4.7, -7, 20, 6.7%
> Cc1ccc2c(c1)C(=O)N1[C@H]3c4cc(Cl)ccc4OC[C@@H]3[C@H](c3ccccc3)[C@]1(C)C(=O)N2
  24, 0.8, -3.4, -7, -7, 7.9%
> Cc1cccc(/C=C\c2nc3ccccc3c(=O)[nH]2)c1
  1, -0.5, -6.7, -20, -9, 1.5%
> CN(C)CCN(C(=O)/C=C/c1cccs1)c1nc2ccc(F)cc2s1
  -15, 1.6, -2.6, -34, -10, -0.4%
> CCCCN(C=O)c1c(CC)nc2c(OCC(=O)c3ccc(F)cc3)cccn12
  -2, -0.5, -3.9, -9, -1, 1.1%
> COc1ccccc1N(C(=O)c1snc(C(N)=O)c1N)C(C(=O)NC1CCCC1)c1ccc(N(C)C)cc1 (configuration not stated)
  -16, 0.2, 0.0, 1, 13, 1.1%
> C#CC(C)(CC)NC(=O)Cn1nnc(-c2cccc(C(F)(F)F)c2)n1 (configuration not stated)
  15, 0.0, -2.0, -8, 5, 1.3%
> Cc1ccc(CNC(=O)/C=C/c2ccc(Br)o2)cc1
  -10, -0.1, -5.7, -12, 4, 1.4%
> CCC1CCCCN1CCCNC(=O)CNC(=O)c1nn(-c2ccc(OC)cc2)c(=O)c2ccccc12 (configuration not stated)
  1, -0.4, 0.6, -8, -1, 0.1%
> CN(C)CCCNC(=O)c1ccc(-c2cc3nc(NCc4cccnc4)n(C)c(=O)c3s2)cc1
  nt, -0.4, 5.0, -12, 1, 1.0%
> COCCNC(=O)c1ccc(NS(=O)(=O)c2cc(C)ccc2C)cc1
  -8, 1.3, 0.4, 1, 2, 3.6%[38.3 µM]
> C[C@H](CO)N1C[C@H](C)[C@@H](CN(C)S(=O)(=O)c2cccc(F)c2)Oc2ncc(Br)cc2C1=O
  -1, -0.2, -2.7, 1, -1, 0.6%
> CCC(=O)N1c2ccccc2CC1C(=O)NCCc1ccc(Cl)cc1 (configuration not stated)
  2, 0.7, nt, nt, nt, 2.2%

Fields: TRPML1 blocker, TRPML1 agonist, D2 agonist, D2 PAM, Six1-Eya2 blk, PINK1 expr mod
> O=C(CSc1nnc2ccccn12)Nc1ccc2c(c1)OCCO2
  38, 1.2, 1.2, -2, -1, 0.5%
> C=C(C)CN(CC)C(=O)CN1C(=O)NC2(CCc3ccccc32)C1=O (configuration not stated)
  -12, 0.0, -0.5, -13, 3, 0.5%
> O=C(Nc1nccs1)C(NS(=O)(=O)c1ccc(Br)s1)c1ccccc1 (configuration not stated)
  -16, -0.5, -3.1, 1, -7, 7.0%
> COC(=O)c1ccc(-n2c(C)cc(C(=O)CSc3cccc[n+]3[O-])c2C)cc1
  8, 0.1, -1.8, 0, -6, 0.8%
> COc1ccc(-c2nnc(SCc3cccc(C#N)c3)o2)cc1
  48, 2.7, -0.4, -6, 5, 2.6%[38.3 µM]

Rows are unselected, and some 1% of all compounds hit somewhere here.
